Source: PubChem BioAssay (National Center for Advancing Translational Sciences (NCATS))
miR-21 FLuc = raises the signal of a miR-21 reporter | 340,000 tested, under 10 active | Potency, µM (top dose mostly 38.3 µM), inactives show at the highest dose reporter change, positive = more light | HeLa miR-21 FLuc reporter, luciferase, 48 h; active = well fitted rising curve with a large enough effect; inconclusive = small, poorly fitted or top-dose-only effect; inactive = no such curve, though single readings can be large or run the other way;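 also: % of control where 0% means no effect; miR-21 action dims this reporter so a rising signal means less miR-21 action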
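Luminescence from a firefly luciferase reporter carrying a miR-21 binding site downstream, stably expressed under a CMV promoter in HeLa cells that make miR-21 endogenously, reports miRNA modulation after 48 h compound exposure up to approximately 40uM final.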
GLA inh pH 4.5 = inhibitors of human alpha-galactosidase A at pH 4.5 | P06280 | purified enzyme, 4-MU-alpha-Gal fluorescence, pH 4.5 | activity change, negative = inhibition, % at 105 µM | 230,000 tested, under 10 active | AID 1467; inconclusive = small, poorly fitted or top-dose-only inhibition, or a rising curve; inactive = flat fitted curve, though single readings scatter; no compound was filed as active;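 also: 0% = full activity with enzyme and -100% = basal without enzyme; dose as in the result columns while the protocol names 77 µM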
Rango-impB inh = Rango-importin beta binding inhibition; hit rate 0.031% among 340,000; Rango CFP/YFP FRET sensor + importin beta, 45 min; Potency, µM (titrated, usually from 92.2 µM), for inactives: top-dose inhibition of complex formation; Q14974; AID 540263; active = rising FRET ratio curve, often small or poorly fitted; inconclusive = mostly compound fluorescence or quenching in the first reads; inactive = flat curves in all reads;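 also: potency is read from the fitted curve at half-maximal effect; 0% = DMSO wells and 100% = buffer wells lacking importin beta; nearly all actives have a fitted effect of over 15% in size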
Target sequence (Q14974 whole entry, looked up): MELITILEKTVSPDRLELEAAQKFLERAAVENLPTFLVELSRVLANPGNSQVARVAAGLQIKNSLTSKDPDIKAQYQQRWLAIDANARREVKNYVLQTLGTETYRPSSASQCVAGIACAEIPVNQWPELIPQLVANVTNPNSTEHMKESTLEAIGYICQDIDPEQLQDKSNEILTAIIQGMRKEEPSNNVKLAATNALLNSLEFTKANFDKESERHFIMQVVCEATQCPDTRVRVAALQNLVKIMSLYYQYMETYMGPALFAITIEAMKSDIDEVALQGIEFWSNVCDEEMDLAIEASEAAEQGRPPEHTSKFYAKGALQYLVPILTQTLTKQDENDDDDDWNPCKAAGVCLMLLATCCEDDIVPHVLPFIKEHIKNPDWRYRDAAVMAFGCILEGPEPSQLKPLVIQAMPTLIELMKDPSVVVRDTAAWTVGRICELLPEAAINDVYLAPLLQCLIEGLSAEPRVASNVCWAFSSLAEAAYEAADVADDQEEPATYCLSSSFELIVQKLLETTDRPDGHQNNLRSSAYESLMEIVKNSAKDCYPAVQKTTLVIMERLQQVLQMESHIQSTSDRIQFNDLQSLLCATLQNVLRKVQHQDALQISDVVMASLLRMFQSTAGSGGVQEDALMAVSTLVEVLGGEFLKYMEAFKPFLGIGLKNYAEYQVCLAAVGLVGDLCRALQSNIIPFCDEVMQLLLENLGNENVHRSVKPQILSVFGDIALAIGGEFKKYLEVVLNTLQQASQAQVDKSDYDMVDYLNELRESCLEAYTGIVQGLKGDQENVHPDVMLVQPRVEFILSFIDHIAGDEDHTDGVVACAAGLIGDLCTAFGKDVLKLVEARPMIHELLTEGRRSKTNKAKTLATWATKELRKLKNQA
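Inhibition scored from the CFP 486 nm/YFP 530 nm FRET ratio 45 min after adding 0.125 microM importin beta to 50 nM Rango biosensor preincubated 5 min with compound (room temperature, PBS with DTT, Tween-20, BSA). No-importin wells as positive control.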
Rango dissoc inh = inhibition of RanGTP-driven Rango-importin beta dissociation | O95149+P62826 | Biochemical FRET Rango-importin beta, RanGTP-induced dissociation | Potency, µM (doses to about 46.1 µM), for inactives: at the top dose activity change, negative = inhibition | hit rate 0.071% among 340,000 | AID 540253; active means falling FRET ratio curve, often poorly fitted, with flat reads before Ran was added; inconclusive means other falling curves, or compound fluorescence or quenching; inactive means flat or rising ratio curve;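 also: potency is read from the fitted curve at half-maximal effect; % of control where 0% means no effect; nearly all actives have a fitted effect of over 45% in size; -100% = wells without RanGTP and RCC1; the record marks most hits as doubtful in a second field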
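Recombinant Rango FRET biosensor (EYFP–snurportin 1 IBB–cerulean CFP10) at 0.1 uM premixed with 0.25 uM importin beta in PBS, 1 mM DTT, 0.02% Tween-20, 0.1% BSA. Compound added 5 min; RanGTP-RCC1 (0.6 uM Ran, 2 mM GTP, 0.2 uM RCC1) then triggers release, read at 45 min.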
* marks the source's active call; other numbers are inactive results; ? = inconclusive; . = not tested or not shown; & = joins results of further samples. An excerpt; the hit share may differ from the screen's.

Order of values – miR-21 FLuc	GLA inh pH 4.5	Rango-impB inh	Rango dissoc inh
Cc1nn(C(=O)c2nn(C)cc2[N+](=O)[O-])c(C)c1Br
    -3%	6	-2.8%	1%
COc1ccc(CCNC(=O)c2cc(-c3ccccc3O)n[nH]2)cc1OC
    -6%	-16	-0.4%	3%
Cc1cn2c(nc(=O)c3cccnc32)s1
    -15%	-7	2.8%	2%
CCOC(=O)Cc1[nH]nc2c1C(c1cccc(OC)c1OC)C(C#N)=C(N)O2 (configuration not stated)
    -2%	1	-2.2%	-5%
O=C(Nc1ccc(OC(F)F)cc1)Nc1cccc(C(F)(F)F)c1
    ?	-15	-1.6%	-2%
CCN1CCN(CCCNC(=O)CNC(=O)c2nn(-c3ccc(OC)cc3OC)c(=O)c3ccccc23)CC1
    -4%	.	-2.3%	8%
Cc1cc(C)n(Cc2ccc(NC(=O)c3ccc(COc4ccccc4Br)cc3)cc2)n1
    26%	1	-0.2%	14%
COc1ccc(NS(=O)(=O)c2cc(NC(=O)c3ccc(=O)[nH]n3)ccc2C)cc1
    .	.	-3.1%	38%
CCOc1ccc(NC(=O)CSc2nnc(C(C)C)n2CC)cc1
    -1%	-3	-0.6%	-1%
Cc1ccc(S(=O)(=O)N(C)CCCC(=O)N2CCOCC2)cc1
    -4%	-23	-3.1%	3%
Cc1ccc(C(=O)Nc2ccc(F)cc2)o1
    -50%	-3	-1.9%	15%
O=C(CSc1nnc(-c2ccncc2)n1CC1CCCO1)Nc1cccc(O)c1 (configuration not stated)
    -7%	4	-1.8%	15%
OC1CNCc2cc3c(cc21)OCCO3 (configuration not stated)
    -8%	11	.	.
Cc1cccnc1NC(=O)CCc1c[nH]c2ccccc12
    -7%	.	0.3%	-12%
COc1cc(/C=C/C(=O)OCC(=O)c2c(N)n(C)c(=O)n(C)c2=O)ccc1OCC#N
    9%	4	-4.3%	-10%

Continuation:
Order of values – miR-21 FLuc	GLA inh pH 4.5	Rango-impB inh	Rango dissoc inh
FC(F)Oc1ccccc1/C=N/Nc1nc2ccccc2o1
    -34%	.	4.1%	-1%
COC(=O)c1cc(=O)n2c(-c3ccccc3)csc2n1
    -1%	0	2.2%	-1%
CC1Cc2cc(S(=O)(=O)N3CCC(C(=O)N4CCCCC4)CC3)ccc2N1C(=O)C1CC1 (configuration not stated)
    -4%	.	4.0%	0%
O=C(Nc1ccccn1)C1(c2cccs2)CCOCC1
    3%	2	-0.8%	33%
CCOc1ccc(C(=O)NCC2CCCN2S(=O)(=O)c2cccs2)cc1 (configuration not stated)
    .	.	-2.2%	12%
COc1ccccc1C1/C(=C(\O)c2ccc3c(c2)OCCO3)C(=O)C(=O)N1Cc1cccnc1 (configuration not stated)
    0%	.	0.6%	1%
Cc1ccc(NC(=O)CC2=NC(=O)C(CC(=O)Nc3ccccc3C)S2)cc1 (configuration not stated)
    1%	2	-0.5%	-2%
COc1ccc(C(=O)Nc2ccncc2)cc1S(=O)(=O)N1CCOCC1
    .	.	-0.7%	-8%
CN(C)c1ccc(-c2noc(C3CCN(S(=O)(=O)c4ccc(C(=O)O)cc4)CC3)n2)cc1
    .	.	0.0%	0%
O=C(Cc1ccc(F)cc1)N/N=C/c1ccccn1
    -13%	-2	-0.7%	-18%
CC(=O)c1ccc(NC(=O)CN2C(=O)NC(C)(C3CCCCC3)C2=O)cc1 (configuration not stated)
    .	.	0.8%	5%
CCC(C)(C(=O)NC1CCCCC1)N(Cc1cccs1)C(=O)Cc1cccs1 (configuration not stated)
    -1%	3	-0.8%	-4%
COc1ccc(OC(=O)COc2cc(C)ccc2C)cc1
    -4%	.	-1.3%	-4%
COc1ccccc1N1CCN(Cc2ccco2)CC1
    -17%	-1	-1.6%	16%
CCNC(=O)N1CCNC(=O)C1CC(=O)Nc1ccc(C(=O)OCC)cc1 (configuration not stated)
    -40%	7	-1.8%	0%

Next entries
Order of values – miR-21 FLuc	GLA inh pH 4.5	Rango-impB inh	Rango dissoc inh
S=c1[nH]nc(-c2ccncc2)n1CC1CCCO1 (configuration not stated)
    -3%	-3	0.7%	1%
CCOc1nnc(C)c2c(C)n(-c3ccc(Cl)cc3)nc12
    -3%	4	-1.2%	-3%
Cc1ccc(N2CC(C(=O)N/N=C/c3sccc3C)CC2=O)cc1 (configuration not stated)
    -19%	7	1.0%	-5%
COCCNC(=O)c1c(C)cc(C)cc1C
    0%	1	-5.8%	-2%
Cc1[nH]c2ccccc2c1CCC(N)=O
    0%	-5	-3.5%	-2%
CCCOC(=O)CCCCCCCCC(O)CN1CCCCC1 (configuration not stated)
    -1%	6	2.0%	-2%
CC(C)(C)c1ccc(OC(=O)CN2C(=O)C3C4CCC(C4)C3C2=O)cc1 (configuration not stated)
    -2%	-2	0.3%	0%
Cc1ccc(N(C)C(=O)c2cnn(-c3ccccc3)c2C)c(C)c1
    2%	.	-0.8%	-4%
CCCCOc1ccc(CSc2nncn2N)cc1
    -61%	11	0.9%	-10%
O=c1cc2oc3cc(O)c(O)cc3c(-c3ccccc3O)c-2cc1O
    14%	-29	-3.0%	-16%
COc1cccc(-c2nnc3sc(-c4cccs4)nn23)c1
    -35%	7	-0.8%	-11%
COc1cc(C(C)=O)ccc1Oc1cc(NN2CCCCC2)c([N+](=O)[O-])cc1[N+](=O)[O-]
    0%	.	0.4%	13%
CC(C)C(=O)n1nc(-c2cccnc2)nc1NCc1ccc(F)cc1
    2%	1	4.8%	-1%
Nn1c(SCC(=O)NCCc2ccc(F)cc2)nnc1C1CCCCC1
    .	.	-1.5%	-9%
O=C(Nc1sc2c(c1C(=O)O)CCC2)c1ccco1
    -2%	0	3.0%	?

More structures follow.
Order of values – miR-21 FLuc	GLA inh pH 4.5	Rango-impB inh	Rango dissoc inh
O=C1CC(c2ccc(F)cc2)CC(O)=C1C=NCCN1CCN(C(=O)Nc2ccccc2)CC1 (configuration not stated)
    -8%	1	2.4%	-1%
Cc1ccnc(NC(=O)c2ccc(Br)s2)c1
    -26%	.	-0.7%	17%
O=C(N/N=C/c1ccccn1)c1cc(-c2ccccc2)nc2ccccc12
    19%	-7	0.7%	0%
Cc1nn(Cc2c(Cl)cccc2Cl)c(C)c1C(=O)NCc1ccc(C)n1C
    -12%	0	0.3%	0%
Cn1cc(Br)c(C(=O)N/N=C/c2cc3ccccc3nc2Cl)n1
    -18%	.	-1.6%	9%
CCOC(=O)C1(Cc2ccccc2C(F)(F)F)CCN(C(C)COC)CC1 (configuration not stated)
    -2%	4	0.0%	5%
CCOC(=O)/C=C/S(=O)(=O)c1ccc(NC(C)=O)cc1
    ?	-9	1.2%	12%
CC1CCN(C(=O)c2ccc(Br)c(S(=O)(=O)N3CCOCC3)c2)CC1
    0%	.	?	-4%
COC(=O)C=CC(=NNc1ccccc1)c1ccccc1
    .	.	-0.3%	1%
NS(=O)(=O)c1ccc(CNC(=O)Cc2ccc(S(=O)(=O)N3CCOCC3)s2)cc1
    .	.	0.8%	-2%
COc1cc(NC(=O)CSCC(=O)Nc2cc(OC)cc(OC)c2)cc(OC)c1
    0%	1	1.2%	1%
Cc1ccc(NC(=O)NN(C)c2c(Cl)c(Cl)nn2C)cc1
    -1%	3	-1.1%	-11%
CC(=O)NCc1ccc(S(=O)(=O)N2CCN(S(=O)(=O)c3ccc4ccccc4c3)CC2)cc1
    .	.	-2.1%	4%
Cc1ccc(Cl)cc1N1CCN(C(=O)CCCn2c(=O)c3cccn3c3cccnc32)CC1
    -4%	.	0.2%	0%
CCOc1cc(/C=C2\NC(=S)N(C)C2=O)ccc1OCc1ccc(C(=O)O)cc1
    0%	.	?	?

Next section
Order of values – miR-21 FLuc	GLA inh pH 4.5	Rango-impB inh	Rango dissoc inh
O=C(CCS(=O)(=O)c1ccc(Cl)cc1)Nc1nnc(-c2ccco2)o1
    .	.	0.6%	-1%
CS(=O)(=O)N(CC(=O)N1CCOCC1)c1ccccc1
    1%	.	?	-8%
Cc1cccc(N2CCN(C(=O)CCc3nc4ccccc4[nH]3)CC2C)c1 (configuration not stated)
    2%	2	-0.4%	-1%
Cc1cc(=O)oc(C)c1C(=O)OCC(=O)c1ccc(Cl)cc1
    -24%	5	-2.9%	-15%
Cc1cc(Br)ccc1NC(=O)CCSc1ccccc1
    -26%	-1	-2.1%	-20%
Cc1cccc(NC(=O)c2ccc(-n3ccnc3)nc2)c1
    -21%	-2	-0.2%	19%
COc1ccc(N2CCOCC2)c(NC(=O)c2cccc3ccccc23)c1
    4%	.	-5.4%	-14%
COc1ccc(NC(=O)CCN2C(=O)c3cccc([N+](=O)[O-])c3C2=O)cc1
    0%	.	0.1%	0%
S=c1[nH]c2cc3ccccc3cc2[nH]1
    -49%&-14%	7&17	0.2%	18%
O=c1[nH]c2ccc(NC(=S)NCc3ccccc3)cc2[nH]1
    -1%	-1	0.3%	35%
O=C(c1ccccc1[N+](=O)[O-])N1CCc2ccccc2C1
    -16%	0	1.1%	?
COc1cccc(NC(=O)CN(C)C(=O)c2ccc(COc3ccccc3)o2)c1
    .	.	0.5%	4%
CC(C)NC(=O)Nc1cccc2c1O[C@H](CN(C)C(=O)NC1CCCCC1)[C@H](C)CN([C@H](C)CO)C2=O
    .	.	-2.5%	0%
CN(CC(=O)Nc1ccccc1C(F)(F)F)C(=O)c1cccc(-n2cccc2)c1
    .	.	-1.3%	8%
Cc1ccc(S(=O)(=O)N(C)C[C@H]2Oc3ccc(NC(=O)Nc4c(C)noc4C)cc3CC(=O)N([C@@H](C)CO)C[C@@H]2C)cc1
    .	.	1.4%	3%

The listing continues.
Order of values – miR-21 FLuc	GLA inh pH 4.5	Rango-impB inh	Rango dissoc inh
Cc1ccc2c(c1)nc(NCCO)n2C
    -9%	6	-0.7%	2%
CCn1cnc2c1c(=O)n(CC(=O)Nc1cc(C)on1)c(=O)n2Cc1ccccc1
    -1%	-18	-1.5%	-4%
CN1C(=O)CS(=O)c2ccc(C(=O)NCCC3=CCCCC3)cc21 (configuration not stated)
    1%	-2	1.1%	-9%
F[B-](F)(F)c1cncc2ccccc12
    .	.	-0.3%	11%
Cc1cc(=O)oc(C)c1C(=O)Nc1ccc(F)cc1
    -1%	6	-0.6%	17%
CC(=O)Nc1ccc(S(=O)(=O)Nc2ccc(-c3ccc4nnc(C)n4n3)cc2)cc1
    0%	12	-0.3%	5%
Cc1ccc2c(c1)C(=O)CC1(CCCCCC1)O2
    -5%	-2	-3.4%	28%
COc1ccc(N2C(=O)C3CC(C)=C(C)CC3C2=O)c(OC)c1 (configuration not stated)
    -1%	1	-3.9%	-14%
CC(C)(C)OC(=O)N[C@H](C(=O)OC(C)(C)C)c1ccc2c(c1)OCO2
    .	.	4.8%	3%
Cc1cc(C)c2c3c(cn2n1)c(=O)n(C)c(=O)n3C
    .	.	2.1%	?
COc1ccc2[nH]c(C)c(CCNC(=S)Nc3ccccc3OC)c2c1
    12%	5	1.8%	-7%
CCOC(=O)CCCCC(=O)c1[nH]c(=O)[nH]c1CSc1nc(C)cc(C)n1
    -4%	8	0.2%	-7%
CCOC(=O)c1nn(-c2ccc(Cl)cc2)c2nnc(Cc3ccc(C)cc3)c(=O)n12
    -12%	1	-0.1%	-10%
CNC(=S)N=Nc1c(O)[nH]c2ccccc12
    -6%	-9	-3.1%	-9%
CCC(C)NC(=O)Nc1ccc2c(c1)N(C)C(=O)c1ccccc1S2 (configuration not stated)
    0%	-7	4.4%	-7%

Going on with the list.
Order of values – miR-21 FLuc	GLA inh pH 4.5	Rango-impB inh	Rango dissoc inh
CNc1cc([N+](=O)[O-])ccc1OCc1ccccc1
    -32%	-1	-0.6%	2%
Cc1[nH]ncc1N=Cc1ccc([N+](=O)[O-])cc1
    -2%	-9	6.6%	5%
N/C(Cc1ccc([N+](=O)[O-])cc1)=N\OC(=O)c1ccccc1Br
    4%	-2	-1.8%	1%
COc1cc2c(cc1OC)C(C(=O)N1CCN(c3ccccn3)CC1)C(c1cccs1)N(C)C2=O (configuration not stated)
    -12%	3	-1.6%	1%
CC(=O)Nc1ccc(C=NNC(=O)CCCC(=O)NN=Cc2ccc(NC(C)=O)cc2)cc1
    .	.	3.3%	-9%
